HNF4A DNA FP = change in binding of human HNF4 alpha to DNA. HNF4a-FITC DNA binding, fluorescence polarization, 1 h. activity change, % at 10 µM. 360,000 tested, 0.3% active; in the data active = activity change above about 30%, passing the limit was not always enough;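 note: controls were the assay level and a saturating level of protein; the project sought stronger binding though the title names inhibitors; some compounds called inactive have numbers as strong as hits; positive values seem to mean higher polarization but the record does not say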
Target sequence (P41235 whole entry, looked up): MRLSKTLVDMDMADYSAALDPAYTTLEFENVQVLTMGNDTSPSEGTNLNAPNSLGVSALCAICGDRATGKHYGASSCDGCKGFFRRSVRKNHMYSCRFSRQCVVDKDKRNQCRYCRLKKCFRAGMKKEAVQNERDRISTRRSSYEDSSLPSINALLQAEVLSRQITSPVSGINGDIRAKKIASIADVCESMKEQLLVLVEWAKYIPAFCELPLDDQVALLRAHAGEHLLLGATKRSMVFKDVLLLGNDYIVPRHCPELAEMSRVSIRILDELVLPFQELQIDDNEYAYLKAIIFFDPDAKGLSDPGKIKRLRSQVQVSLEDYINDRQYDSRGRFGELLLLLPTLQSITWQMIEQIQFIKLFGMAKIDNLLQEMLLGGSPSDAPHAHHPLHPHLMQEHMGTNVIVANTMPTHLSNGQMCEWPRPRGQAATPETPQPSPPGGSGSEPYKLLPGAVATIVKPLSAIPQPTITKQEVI
Vif TR-FRET = inhibitors of Vif binding to APOBEC3G peptide, primary screen, biochemical, TR-FRET, GST-Vif 1-94, biotin-A3G peptide, dose response retest (AID 1117319). TR-FRET GST-Vif / biotin-A3G peptide binding; higher % means a stronger effect; test concentration not given here; strong numbers were not always called active. inhibition, %; hits with a dose series show IC50 in µM. 260,000 tested, 0.57% active;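 active = above the screen mean plus three standard deviations and confirmed in dose response; inconclusive = results disagree or hit not tested in dose response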;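 note: Vif residues 1-94 fused to GST binding biotinylated APOBEC3G peptide 110-148; 0% = full assay without inhibitor and 100% = GST in place of GST-Vif; retest series ran down from 100 µM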
E coli growth = inhibitors of Escherichia coli growth | OD600, 23 h; active compounds read low | OD600 absorbance (concentration not given with the values) | 330,000 tested, 0.21% active;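 active = OD600 absorbance below the run mean of sample wells minus 3.6 SD, in any replicate, cut at about 0.56 in these data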;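 note: stock transfer was 300 nL into about 60 µL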
Ecoli rRNA inh = inhibits bacterial ribosomal RNA function over humanized ribosomes. GFP signal change (wild-type ribosome), % (no concentration beside the values). AID 720706. E. coli WT GFP vs humanized-ribosome RFP mutants, fluorescence, 24 h; active compounds read low; DMSO median 0, no signal -100. 350,000 tested, 1.6% active;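 active = significant combined selectivity score with lowered wild-type GFP, culture density cut under 30%, mutant RFP and density less affected; inactive = any of these conditions unmet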; note: one replicate is shown; some compounds called inactive have numbers as strong as hits
AF4-AF9 inh = MLL-AF4/AF9 protein interaction inhibition | P42568 | AlphaScreen, biotin-AF4 peptide binding to FLAG-AF9 | inhibition, % at 10 µM | 350,000 tested, 0.47% active | AID 651704;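 active = every replicate reaching a set inhibition limit, whatever the replicate mean, cut at about 25% in these data; inconclusive = mean inhibition reaches that limit but some replicates miss it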;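 note: 0% = plate neutral control median and 100% = total signal loss; the record names both 10 and 1 µM as test concentration; the first replicate is given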
Target sequence (P42568 whole entry, looked up): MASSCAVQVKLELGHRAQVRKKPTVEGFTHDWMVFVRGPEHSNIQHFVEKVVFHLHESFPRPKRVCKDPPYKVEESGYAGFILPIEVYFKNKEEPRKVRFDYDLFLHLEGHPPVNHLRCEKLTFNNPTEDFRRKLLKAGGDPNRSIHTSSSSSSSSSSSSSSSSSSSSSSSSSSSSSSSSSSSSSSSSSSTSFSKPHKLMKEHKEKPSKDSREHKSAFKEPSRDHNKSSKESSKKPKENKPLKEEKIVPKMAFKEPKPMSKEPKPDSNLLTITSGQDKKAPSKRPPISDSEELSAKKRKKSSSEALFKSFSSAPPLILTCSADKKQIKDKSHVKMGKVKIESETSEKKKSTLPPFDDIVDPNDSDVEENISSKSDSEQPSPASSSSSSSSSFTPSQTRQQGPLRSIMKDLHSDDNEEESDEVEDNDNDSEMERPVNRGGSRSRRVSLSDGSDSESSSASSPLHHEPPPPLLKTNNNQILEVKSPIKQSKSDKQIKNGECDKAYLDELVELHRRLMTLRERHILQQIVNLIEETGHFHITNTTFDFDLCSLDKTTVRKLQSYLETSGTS
ALR H2O2 inh = human ALR oxidase inhibition via reduced H2O2 | P55789 | 290,000 tested, 3.8% active | purified ALR, DTT oxidation, H2O2 HRP-luminol luminescence | inhibition, % (test concentration not listed) | AID 485317;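 active = mean and each replicate at 75% or more; inconclusive = only one of the two met; inactive = neither met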;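 note: stock transfer was 7.5 nL into about 7.5 µL; 0% = neutral wells and 100% = wells with inactivated enzyme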
FGF22 binding = binders of recombinant human FGF22 by thermal shift. Q9HCT0. SYPRO orange fluorescence; percent of sucrose octasulfate shift, DMSO zero. calls only at 9.99 µM. 340,000 tested, 1.5% active. AID 651658;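 active = melting point raised past a set limit in the mean and every replicate; inconclusive = no clear call; three in four hits are not shown here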
Ecoli rRNA inh OD600 = further read-out of Ecoli rRNA inh, marked with its call; OD600 change, %; measured here: OD600 growth;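 optical density of the mix in the first replicate; 0 = DMSO median and -100 = no signal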
Ecoli rRNA inh RFP = further read-out of Ecoli rRNA inh, marked with its call; RFP signal change, %; measured here: RFP humanized mutant strains;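 first replicate; 0 = DMSO median and -100 = no signal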
The depositor's hits bear a star; i = inactive; ? = inconclusive; · = no result given; & = joins results of further samples. A portion of the library; the hit share may differ from the screen's.

Molecule	ALR H2O2 inh	HNF4A DNA FP	E coli growth	Ecoli rRNA inh	AF4-AF9 inh	Vif TR-FRET	Ecoli rRNA inh OD600	Ecoli rRNA inh RFP	FGF22 binding
COc1ccc(CCC(=O)OCC(=O)NCc2ccc(OC)c(OC)c2)cc1OC	-2	2.8	0.7	5	0.7	·	2	-1.9	i
CC(=O)c1ccccc1NC(=O)c1cc(S(=O)(=O)N2CCOCC2)ccc1N1CCCC1	·	-2.6	0.67	7	-2.4	-10%	0	2.8	i
O=C(OCn1nnc2ccccc2c1=O)C1=COCCO1	0	-0.6	0.69	·	·	-6%	·	·	·
C[C@@H](O)C#Cc1ccc([C@H]2[C@@H](CO)N3CCCCN(C(=O)c4ccncc4)C[C@@H]23)cc1	·	·	·	6	-3.8	·	-7	-0.4	i
O=C(CN1C(=O)NC2(CCCC2)C1=O)NCc1ccco1	·	0.3	0.72	8	0.1	·	12	-0.2	i
O=C(/C=C/c1cccc(Cl)c1)NCCc1ccccc1	-6	0.8	0.68	·	·	-2%	·	·	·
O=C(COC(=O)COc1ccccc1F)Nc1ccc2c(c1)OCO2	-30	0.2	0.68	9	-11	·	-4	-1.9	i
CC(=O)N1[C@H](CO)[C@@H](c2ccc(C3=CCCCC3)cc2)[C@@H]1CNC(=O)CN(C)C	·	·	·	0	7.2	·	12	2.0	i
CCc1ccccc1NC(=O)CCN1C(=O)C2CC=CCC2C1=O (centres undefined)	-1	0.6	0.68	11	2.2	·	16	0.7	i
CCN(CC#CCC(O)(c1ccccc1)C1CCCC1)C(C)C (centres undefined)	29	3.0	0.81	·	·	-6%	·	·	·
COC(=O)C1=CO[C@@H](O[C@@H]2O[C@H](CO)[C@@H](O)[C@H](O)[C@H]2O)C2C1C=C[C@@]2(O)CO (some centres undefined)	-1	-4.8	0.73	4	-21	·	3	-8.4	i
O=C(C[C@@H]1C[C@@H]2c3cc(NC(=O)c4ccc5c(c4)OCO5)ccc3O[C@@H]2[C@@H](CO)O1)NCCN1CCCCC1	·	·	·	0	3.6	·	3	0.2	i
CC(C)Oc1ccc(C(=O)O)c(C(=O)O)c1	3	-0.3	0.67	·	·	4%	·	·	·
CCCN1C[C@H](C)[C@@H](OC)CN(C)C(=O)c2ccc(NC(=O)C3CC3)cc2OC[C@@H]1C	·	·	·	1	0.5	·	-4	-0.1	i
CCN(CC)S(=O)(=O)c1cccc(C(=O)NCC(=O)OCC(=O)NCc2ccccc2)c1	2	-1.2	0.74	·	·	?	·	·	·
Cc1nc2ccc(NC(=O)N3CCOCC3)cc2s1	-15	0.4	0.72	·	·	-9%	·	·	·
Cc1cccc(NC(=O)C2CCN(C(=O)N3CCOc4ccccc43)CC2)c1C	-12	1.5	0.8	-9	-1.5	·	-10	1.4	i
COc1ccccc1S(=O)(=O)N[C@H]1CC[C@H](CCNC(=O)C2CCCC2)O[C@H]1CO	·	·	·	2	-4.9	·	7	-2.9	i
CC1=C(C(=O)NCc2ccccn2)C2(CCC(C)CC2)OC1=O (centres undefined)	-4	3.0	0.72	-4	6.7	0%	12	-6.7	i
COc1ccc2nc(SCC(=O)NCc3ccc4c(c3)OCO4)[nH]c2c1	·	2.2	0.73	·	·	-3%	·	·	·
O=C1c2ccccc2C(Nc2ccc3c(c2)OCCO3)N1Cc1ccc2c(c1)OCO2 (centres undefined)	98*	1.5	0.75	1	11	10%&4%	-21	-1.8	·
C[C@@H]1CN([C@@H](C)CO)C(=O)c2ccccc2-c2ccccc2CO[C@@H]1CN(C)Cc1ccc(C(=O)O)cc1	·	·	·	0	-3.2	·	5	-3.7	i
O=C(OCC(=O)N(c1ccccc1)C1CCCCC1)c1ccc(CO)cc1	0	1.1	0.71	-1	-4.1	-4%	-3	-5.8	i
CC(=O)c1cccc(NC(=O)CCCSc2ccccc2)c1	-1	-0.4	0.62	-13	-0.2	1%	-32	-4.8	i
COc1ccc(S(=O)(=O)N2CCCCN3[C@H](CO)[C@H](c4ccc(C#CC(C)C)cc4)[C@H]3C2)cc1	·	·	·	-16	1.2	·	2	-3.0	i
N=c1n(CCN2CCCCC2)c2ccccc2n1CC(=O)c1ccc(Cl)c(Cl)c1	-1	-0.6	·	30	·	-5%	15	58	i
C[C@H]1CCCCO[C@H](CN(C)Cc2ccc(C(=O)O)cc2)[C@@H](C)CN([C@@H](C)CO)C(=O)c2cc(N(C)C)ccc2O1	·	·	·	2	-7.2	·	8	0.3	i
COCc1cc(C)nc(OCC(=O)N/N=C/c2ccccc2)c1C#N	-3	0.3	·	-6	2.3	6%	-1	-2.9	i
COc1ccc2c(=O)c(N3C(=O)c4ccccc4C3=O)c(C)oc2c1	-3	5.3	0.71	-3	4.5	?	0	1.4	i
CCC(=O)N[C@@H]1C=C[C@@H](CC(=O)NCc2cc(F)cc(F)c2)O[C@H]1CO	·	·	·	-1	-0.2	·	0	-1.2	i
O=S(=O)(N1CCOCC1)n1c(Cc2ccccc2)nc2ccccc21	0	-0.7	0.71	·	·	4%	·	·	·
COc1ccc(C(=O)NNC(=O)c2ccncc2)cc1[N+](=O)[O-]	-7	-0.1	0.67	5	0.0	3%	11	0.8	i
O=C(COC(=O)c1ccc(Br)cc1)NCCC1=CCCCC1	-14	-2.7	0.69	17	-0.7	-6%	9	0.9	i
CCOc1ccc(C(=O)Nc2ccccc2OC(F)F)cc1	0	3.2	0.67	-4	-8.3	7%	-4	-0.7	i
CC(NC(N)=O)C(=O)OCc1ccc(Cl)cc1Cl (centres undefined)	-12	-0.2	0.7	·	·	-4%	·	·	·
CN(CC(=O)Nc1sccc1C#N)Cc1ccccc1	-3	6.7	0.66	-7	-0.7	9%	9	-0.5	i
CN(C)CCCNC(=O)c1ccc(-c2ccccc2)cc1	-1	1.4	0.77	·	·	-5%	·	·	·
Cc1nc(SCC(=O)N2CCNC2=O)c(C#N)c(C)c1C	·	-6.0	·	10	6.5	-5%	2	2.6	i
CC(C)c1ccc(S(=O)(=O)N2CCCCC2)cc1	0	0.4	0.68	-7	-0.6	-4%	-9	1.1	·
C/C(CC1CC(C)OC1=O)=N\NC(N)=S (centres undefined)	0	0.1	·	2	-1.9	·	4	-2.5	i
c1ccc(-c2nnc(CSc3nnc(-c4cccs4)o3)o2)cc1	-3	3.3	0.63	·	·	7%&-20%	·	·	·
COC(=O)c1ccc2c(=O)n(-c3ccccc3F)c(=S)[nH]c2c1	-9	-0.7	0.76	8	-4.3	-19%	10	4.0	i
Cc1cc(C)c(S(=O)(=O)Nc2ccccc2-c2ccccc2)c(C)c1	0	0.3	0.73	-18	-2.6	·	-35	6.1	i
C[C@@H]1CN([C@H](C)CO)C(=O)c2cc(-c3ccc(F)cc3)cnc2O[C@H]1CN(C)Cc1cccnc1	·	·	·	-3	-8.0	·	4	-1.7	i
Cc1ccc2c(c1)C(=O)C(=O)N2CC(=O)Nc1ccc(N2CCOCC2)cc1	8	1.8	0.69	16	-1.6	8%	3	-1.1	i
Cc1ncc(CO)c2cc(C(=O)Nc3ccccc3Cl)c(=Nc3cccc(C(N)=O)c3)oc12	-12	2.4	0.74	9	1.3	-8%	14	0.5	i
COC(C[C@H](O)C[C@@H](O)COCc1ccccc1)OC	·	-5.1	·	14	0.9	-12%	22	2.6	i
COc1ccc(-c2cncnc2N)cc1OC	·	-8.2	·	-5	-0.1	-5%	6	-8.0	i
O=C(Nc1nnc(-c2ccccc2)s1)c1cc(S(=O)(=O)N2CCOCC2)c(Cl)cc1Cl	12	-1.0	0.69	·	·	?	·	·	·
CCOC(=O)C1=CC[C@H]2c3c(c4ccccc4n3C)C(=O)C1N2Cc1ccccc1	-3	0.0	·	4	-1.2	·	6	2.0	i

Sorted by length of the SMILES (falling): part of the list above.
Molecule	ALR H2O2 inh	HNF4A DNA FP	E coli growth	Ecoli rRNA inh	AF4-AF9 inh	Vif TR-FRET	Ecoli rRNA inh OD600	Ecoli rRNA inh RFP	FGF22 binding
O=C(Nc1nnc(-c2ccccc2)s1)c1cc(S(=O)(=O)N2CCOCC2)c(Cl)cc1Cl	12	-1.0	0.69	·	·	?	·	·	·
Cc1cc(C)c(S(=O)(=O)Nc2ccccc2-c2ccccc2)c(C)c1	0	0.3	0.73	-18	-2.6	·	-35	6.1	i
COc1ccc(-c2cncnc2N)cc1OC	·	-8.2	·	-5	-0.1	-5%	6	-8.0	i

(more compounds)
Molecule	ALR H2O2 inh	HNF4A DNA FP	E coli growth	Ecoli rRNA inh	AF4-AF9 inh	Vif TR-FRET	Ecoli rRNA inh OD600	Ecoli rRNA inh RFP	FGF22 binding
CC(=O)c1ccc(N(C(=O)CNC(=O)c2cccs2)C(C(=O)NCC2CCCO2)c2ccccc2)cc1 (centres undefined)	-7	-1.4	0.7	·	3.1	7%	·	·	i
O=C(Nc1ccc(Cl)cc1)Nc1ccccc1C(=O)NCc1ccco1	-1	-4.2	0.75	·	·	-1%	·	·	·
CCCCC(=O)NCCc1cc2c(C)ccc(C)c2[nH]c1=O	-10	-2.6	0.72	5	0.9	·	6	-2.2	i
CCOc1ccc(CCNC(=O)CN2C(=O)NC3(CCCCC3C)C2=O)cc1OCC (centres undefined)	·	-3.7	0.7	3	1.1	4%	12	-1.2	i
O=C(Nc1ccc(S(=O)(=O)N2CCCC2)cc1)c1ccc([N+](=O)[O-])o1	-22	-3.6	0.68	0	·	·	3	1.9	·
COc1ccc(Cl)cc1NC(=S)NCc1ccco1	3	2.9	0.73	·	·	1%	·	·	·
O=C(Nc1nc(OCC(F)(F)F)cnc1/C=C\c1ccccc1)c1ccccc1	·	0.8	·	3	-7.3	·	-7	7.5	i
CC(C)N1C(=O)c2ccccc2NC(=O)C1C(=O)NCc1cccs1 (centres undefined)	·	-0.5	·	23	-5.2	·	18	1.9	i
O=S(=O)(NCc1ccc2c(c1)OCO2)c1ccc2oc3ccccc3c2c1	-54	-0.8	0.74	·	·	-4%	·	·	·
CN1C(=O)c2cc(NC(=O)C3CCCC3)ccc2OC[C@@H]2O[C@H](CC(=O)Nc3ccccc3)CC[C@H]21	·	·	·	-3	-1.2	·	0	-2.2	i
CCOC(=O)C1=C(C)N(C[C@@H]2CC[C@@H](Cc3ccc4cc(OC)ccc4c3)O2)C(=O)NC1c1ccc(OC)cc1 (some centres undefined)	·	0.6	0.73	3	2.6	2%	3	-2.2	i
CC=Cc1ccc2n(c1=O)C[C@@H]1[C@@H](CO)[C@H](C(=O)NCC3CC3)N(Cc3ccccc3)[C@H]21 (mixture of isomers)	·	·	·	-1	1.1	·	-11	0.3	i

Source: PubChem BioAssay
